gsp agonist – agonists of gsp mutant (McCune-Albright syndrome). AID 624287. actives 0.13% (n = 340,000). Potency, µM (titrated, usually from 76.9 µM), for inactives: top-dose activation (cAMP increase), actives largely listed as activators. gsp mutant cells, cAMP HTRF, 30 min; control for the full effect not named in the record; active = well fitted activation curve with a large enough effect; inconclusive = small, poorly fitted or top-dose-only effect, or another doubt; inactive = no such curve, though single readings can be large or run the other way; cell line not stated here;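 note: phosphodiesterase inhibitor Ro 20-1724 added with compounds to block cAMP breakdown; potency is the fitted concentration of half-maximal effect; nearly all actives have a fitted effect of over 60% in size; about a fifth of the inactives were tested at one dose only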
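Cells stably selected in G418 were plated at 2000/well, grown 16-24 hr, then given compounds in DMSO with the PDE inhibitor […] (300 uM solution added) for 30 min at 37C; cAMP was read by HTRF.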
ClpP mod – qHTS Assay for Activators of ClpP | purified B. subtilis ClpP, FRET peptide cleavage, 20 min | Potency, µM (titrated, usually from 57.5 µM), for inactives: at the highest dose activity change, negative = active | actives 1.9% (n = 340,000) | AID 651965, 2013; active = well fitted falling curve with a large enough effect; inconclusive = small, poorly fitted or top-dose-only effect; inactive = no such curve, though single readings can be large or run the other way; note: potency is the fitted concentration of half-maximal effect; the source files actives as falling curves though it sought activators and does not explain the sign; nearly all actives have a fitted effect of over 65% in size; many hits overshoot -100%
Target sequence (P80244 whole entry, looked up): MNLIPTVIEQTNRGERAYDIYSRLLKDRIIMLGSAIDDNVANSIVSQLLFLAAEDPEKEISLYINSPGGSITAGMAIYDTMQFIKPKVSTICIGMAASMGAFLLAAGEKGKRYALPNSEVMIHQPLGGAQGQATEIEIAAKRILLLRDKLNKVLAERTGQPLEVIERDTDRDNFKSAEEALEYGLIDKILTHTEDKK
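FRET quenching reversal measured ClpP activation: 10 microg/mL B. subtilis ClpP at pH 8 with the FRET-FV decapeptide, read at 430 nm after 320 nm excitation. The 20-min minus 0-min signal was scaled between DMSO/no-enzyme wells and ADEP (5.8 microM final).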
TRPML1 inh – blocks the human TRPML1 channel; Q9GZU1; TRPML1-inducible cells, Ca2+ dye fluorescence, FDSS; active compounds read low; inhibition of EC80 agonist-evoked calcium signal; activity change, negative = inhibition, % (no concentration beside the values); actives 0.02% (n = 390,000); AID 624415; in the data active means activity change below about -50%; inconclusive means about -30% to -50%; inactive means above about -30%;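 note: stimulus is agonist 54-4 at its EC80 concentration; % is set by controls: 0 for no effect and ±100 for the full control effect; compound concentration not given in the record; the text of the record puts the active cut at -80%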
Target sequence (Q9GZU1 whole entry, looked up): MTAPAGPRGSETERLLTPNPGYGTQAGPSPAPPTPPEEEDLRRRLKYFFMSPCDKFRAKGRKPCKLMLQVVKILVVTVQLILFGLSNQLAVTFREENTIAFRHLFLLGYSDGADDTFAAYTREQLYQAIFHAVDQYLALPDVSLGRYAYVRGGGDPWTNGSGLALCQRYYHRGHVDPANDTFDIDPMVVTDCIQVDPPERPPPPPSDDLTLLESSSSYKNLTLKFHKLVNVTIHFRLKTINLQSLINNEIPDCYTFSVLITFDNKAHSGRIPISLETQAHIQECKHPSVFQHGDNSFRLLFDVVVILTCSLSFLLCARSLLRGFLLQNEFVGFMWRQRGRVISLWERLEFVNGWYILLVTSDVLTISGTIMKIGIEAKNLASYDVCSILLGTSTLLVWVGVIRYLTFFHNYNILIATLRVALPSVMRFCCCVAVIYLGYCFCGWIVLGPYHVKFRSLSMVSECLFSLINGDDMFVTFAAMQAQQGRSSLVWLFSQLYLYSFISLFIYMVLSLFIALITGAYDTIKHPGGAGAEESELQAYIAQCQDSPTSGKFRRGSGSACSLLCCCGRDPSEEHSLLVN
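Calcium fluorescence in TRPML1-DL cells induced overnight with Tet: a 110 s read after compound pin addition, then a 110 s antagonist read after challenge with 54-4 at 4 uM final (EC80).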
TRPV1 PAM – potentiators of human vanilloid receptor 1 (TRPV1). actives 0.02% (n = 320,000). TRPV1-expressing cells, Fluo-8 calcium influx, capsaicin EC20 potentiation; host cell line not named in the record; control for the full effect not named in the record. potentiation, % at 8.33 µM. Q8NER1; active means potentiation above 80%; inconclusive means 30% to 80%; inactive means below 30%; note: 0% is about no effect
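Cells expressing TRPV1 were dye-loaded with Fluo-8 and read kinetically: 10 s baseline, 3 min after compound (agonist portion), then 2 min after EC20 capsaicin (allosteric enhancer portion). Calcium-bound dye fluorescence at 480/520 nm.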
gsp antagonist – gsp mutant antagonism; gsp-mutant cells, cAMP HTRF, 30 min; control for the full effect not named in the record; Potency, µM (doses to about 76.9 µM), without a hit: top-dose activity change, negative = inhibition, actives largely listed as inhibitors; actives 0.4% (n = 340,000); active = falling curve of any shape with a large fitted effect; inconclusive = falling curve, mostly with a smaller effect; inactive = flat or rising curve; cell line not stated here;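 note: intracellular cAMP measured with PDE inhibitor Ro 20-1724 present during compound exposure; potency is the fitted concentration of half-maximal effect; % is set by controls: 0 for no effect and ±100 for the full control effect; nearly all actives have a fitted effect of over 65% in size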
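Measurement of cellular cAMP by homogeneous time-resolved fluorescence following a 30 min compound exposure at 37C. The PDE inhibitor […] was present throughout; the assay buffer was DPBS with 0.05% BSA and 0.005% Tween 20.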
Menin MLL FP FL – displaces fluorescein MLL peptide from human menin; FP activity change, % at 61.4 µM; 290,000 tested, under 10 active; Fluorescence polarization, fluorescein-MLL peptide displacement from menin; inconclusive = falling polarisation curve, or a change in total fluorescence; inactive = total fluorescence flat and polarisation flat or rising; no compound was filed as active; the % refers to the polarisation; negative = inhibition;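 note: % of control where 0% means no effect; inhibitors lower the polarisation; unlabelled MLL peptide was the positive control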
Sfp inh – Sfp phosphopantetheinyl transferase inhibition; Q9F4F7; Biochemical Sfp PPTase activity, qHTS; Potency, µM, without a hit: max response, negative = inhibition, hits mostly inhibitors; actives 3.5% (n = 310,000); AID 1490; active = well fitted inhibition curve with a large enough effect; inconclusive = small, poorly fitted or top-dose-only effect, or another doubt; inactive = no such curve, though single readings can be large or run the other way;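 note: the enzyme is Sfp with the accession as filed and its product quenches rhodamine fluorescence; potency is the fitted concentration of half-maximal effect; 0% = enzyme reaction without inhibitor and -100% = no enzyme wells; top concentration of the series not given in the record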
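Reaction rates are the 30-min fluorescence difference (ex 525, em 598 nm) in wells containing 15 nM Sfp, 5 uM rhodamine-CoA and 12.5 uM BHQ-2-YbbR at pH 7.6 with 10 mM MgCl2.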
Starred values were filed as active, the others as inactive; ? = inconclusive; . = no result given; & = joins results of further samples; [ ] = remark or other dose.

SMILES	gsp agonist	ClpP mod	TRPML1 inh	TRPV1 PAM	gsp antagonist	Menin MLL FP FL	Sfp inh
O=C1CNC(=O)N1Cc1ccc(Br)cc1	-4%	0.0%	1	7	9%	4.2	-6%
COc1ccc(Br)cc1CNC(C)c1ccccc1 (stereo not drawn)	-3%	2.2%	10	-3	10%	5.1	9%
CCc1ccc2c(COC(=O)CNS(=O)(=O)c3ccc(NC(C)=O)cc3)cc(=O)oc2c1	2%	3.1%	2	-9	-5%	.	-4%
CCCn1c(SCC(=O)Nc2nnc(C)s2)nnc1-c1ccoc1C	14%	1.2%	-10	2	-6%	-1.6	-6%
Cc1ccc(NC(=O)C(NS(=O)(=O)c2cccc3nsnc23)C(C)C)nc1 (stereo not drawn)	?	1.7%	2	?	-1%	-6.5	13%
CC[C@H](C)Cc1cn([C@@H](CCCN=C(NC(=O)OC(C)(C)C)NC(=O)OC(C)(C)C)C(=O)NCCCCCCCCCCC(=O)N2CCN(C(=O)OC(C)(C)C)CC2)nn1	-39%	0.3%	7	-22	7%	.	.
COCCN=C1NN=C(c2ccc(NC(C)=O)cc2)CS1	8%[15.4 µM]	.	-2	-1	-20%	-3.4	40µM*
Cc1cc2c(cc1C)NC(=O)C(C)CN2 (stereo not drawn)	?	?	-15	.	.	.	.
O=C(NC(=S)Nc1ccc2c(c1)OCO2)c1ccc(Cl)cc1	11%[15.4 µM]	-1.6%	12	9	-1%	5.3	?
COc1ccc(C(=O)N/C(=C/c2ccccc2F)C(=O)NCCN2CCOCC2)cc1OC	2%	0.1%	48	-3	19%	.	14%
COc1ccc2nc(SCC(=O)c3c(N)n(C4CC4)c(=O)[nH]c3=O)[nH]c2c1	-14%	0.0%	-3	0	2%	.	.
S=C(c1ccco1)N1CCOCC1	-6%	-4.0%	-11	.	0%	.	.
CCOC(=O)C1=C(Cc2ccc(C)cc2)C(=O)c2ccccc2C1=O	.	.	.	5	.	?	7.9µM*
CCCC(=O)NCCc1nc2ccccc2n1CCC	-42%[inhibitor]	1.0%	6	0	3%	-0.8	22%
CC(C)NC(=O)NC(=O)COc1cccc2c1OC(C)(C)C2	-35%[inhibitor]	0.9%	-8	0	4%	-1.1	0%
S=c1nc(C2CC2)[nH]c2ccccc12	?	8.1%	-4	17	24%	3.1	-38%
CCOc1ccc(C(=O)Cc2cc3cccc(OC)c3oc2=O)cc1	8%	.	6	-12	-10%	-2.7	6%
COc1cc(OC)cc(C(=O)N[C@H](C(=O)Nc2ccc3c(c2)OCO3)C(C)C)c1	13%[15.4 µM]	.	0	-28	-6%	1.2	9%
Cc1ccc(S(=O)(=O)N2CCC(C(=O)Nc3nnc(-c4ccc(F)cc4)s3)CC2)cc1	8%[15.4 µM]	-1.5%	-21	5	8%	6.3	3%
COC(=O)C1=C(C)NC(=O)/C1=C\c1cc(C)n(-c2ccc(F)cc2)c1C	2%[15.4 µM]	.	2	1	-7%	?	35µM*
Cc1nn(-c2ccccc2)c(N2CCCCC2)c1/C=N/O	-18%	-2.2%	5	6	1%	0.3	8%
Cc1ccc(NC(=O)CSCC(=O)N2CCN(C(=O)c3ccco3)CC2)cc1	16%	0.2%	-13	-7	3%	.	.
Cc1nc(Cc2nnc(SC(C)C(=O)Nc3cccc(C#N)c3)o2)cs1 (stereo not drawn)	-24%	-2.7%	9	5	-2%	.	.
Cc1cc(NC(=O)CCCC(=O)O)nc(C)n1	5%	-0.4%	0	2	0%	3.3	13%
CN1CCN(c2oc(-c3ccccc3)nc2S(=O)(=O)c2ccccc2)CC1	-2%	.	0	.	-9%	.	.

The closing 4 records of the section before open the next one.
SMILES	gsp agonist	ClpP mod	TRPML1 inh	TRPV1 PAM	gsp antagonist	Menin MLL FP FL	Sfp inh
Cc1ccc(NC(=O)CSCC(=O)N2CCN(C(=O)c3ccco3)CC2)cc1	16%	0.2%	-13	-7	3%	.	.
Cc1nc(Cc2nnc(SC(C)C(=O)Nc3cccc(C#N)c3)o2)cs1 (stereo not drawn)	-24%	-2.7%	9	5	-2%	.	.
Cc1cc(NC(=O)CCCC(=O)O)nc(C)n1	5%	-0.4%	0	2	0%	3.3	13%
CN1CCN(c2oc(-c3ccccc3)nc2S(=O)(=O)c2ccccc2)CC1	-2%	.	0	.	-9%	.	.
O=C(COC(=O)c1ccc[n+]([O-])c1)Nc1ccc([N+](=O)[O-])cc1C(F)(F)F	-18%	-5.4%	8	.	-4%	.	.
CN(Cc1ccccc1)C(=O)c1ccco1	-12%	-1.9%	8	10	3%	-0.7	9%
C=CCOc1ccc(C=NNc2ccc(S(=O)(=O)Nc3ccccc3C(=O)O)cc2[N+](=O)[O-])cc1OC	4%	0.2%	-11	.	-9%	.	.
O=C(c1ccccc1)N1CCN(C(=O)c2ccccc2)CC1	?	1.7%&1.5%	14	0	5%	-3.1	3%
CN1C(C(=O)NCC2CC2)CC2Cn3c(nc4ccccc43)C21 (stereo not drawn)	0%	-3.0%	-1	-9	9%	.	.
CCc1cc(C(=O)NCC(c2ccc(OC)cc2)N2CCOCC2)sc1C (stereo not drawn)	11%	-14%	-9	14	-5%	.	.
O=C(CCc1nnc(CCCc2ccccc2)o1)NCCc1ccco1	-89%	-1.3%	4	-2	2%	-7.4	?
O=C(CCCn1c(SCC(=O)NCC2CCCO2)nc2ccccc2c1=O)NCc1ccccc1 (stereo not drawn)	4%	-0.3%	-12	19	9%	3.4	17%
NC(=O)CSc1oc(-c2cccs2)nc1S(=O)(=O)c1ccccc1	2%	-6.1%	-18	0	-2%	10.0	0%
c1cn(CCCNC2=NCCCCC2)cn1	5%	0.4%	28	12	11%	1.5	2%
O=C(NNC(=O)c1ccc(Oc2cc(Cl)cc(Cl)c2)o1)c1ccccc1	-32%	0.2%	9	.	5%	4.3	24%
COC(=O)c1ccc(OCCN2CCCCCC2)cc1	?	.	-9	1	11%	-4.9	-18%
COCCCNC(=O)c1ccc(-c2csc(C)n2)cc1	-11%[15.4 µM]	-11%	-5	12	6%	3.7	20%
CCOC(=O)C(CO)(NC(C)=O)C(=O)OCC	4%	-0.1%	1	-18	-10%	0.3	-4%
CC(OC(=O)C1CC(=O)N(Cc2ccccc2)C1)C(=O)Nc1ccc(F)cc1Cl (stereo not drawn)	2%[15.4 µM]	.	-8	23	-8%	.	.
Cc1ccc(S(=O)(=O)N2CCC(n3nnc4cc(C)ccc43)CC2)cc1	-4%	-0.5%	27	6	-5%	2.5	10%
CSCCCc1cn([C@@H](CO)C(=O)NCCCCCCCCCCC(=O)N2CCNCC2)nn1	4%	1.5%	5	22	8%	.	.
O=C(N/N=C/c1cc([N+](=O)[O-])cc([N+](=O)[O-])c1O)/C(=C\c1cccs1)NC(=O)c1ccccc1	-1%	-0.5%	-12	5	-2%	4.8	13%
N#CCCn1cc(/C=N/NC(=O)c2ccncc2)c(-c2ccccc2)n1	-18%	-0.7%	-7	-5	8%	5.1	14%
Cc1ccc2[nH]c(=O)c(CN(Cc3nnnn3Cc3ccccc3)C3CCCC3)cc2c1	-23%	-28%	-1	2	-16%	-1.6	-25%
CCN(CC(=O)NCc1ccc(Cl)cc1)C(=O)/C=C/c1ccc(C#N)cc1	2%[15.4 µM]	-9.8%	4	-9	-12%	6.1	-3%
O=C(CCNC(=O)c1ccc([N+](=O)[O-])cc1)Nc1ccccc1N1CCCC1	-1%	0.5%	4	-2	-29%	.	12%
c1ccc(CSc2nnc(NC3=NCCCCC3)s2)cc1	-28%	-2.8%	8	-22	-11%	-2.7	-5%
O=C(/C=C/c1ccc(OC(F)F)cc1)Nc1cccc(S(=O)(=O)N2CCOCC2)c1	0%	-5.9%	5	-3	?	.	19%
Cc1c(C(=O)OC(C)CCN(C)C)oc2ccccc12 (stereo not drawn)	-7%	-16%	3	1	7%	2.9	16%
SMILES	gsp agonist	ClpP mod	TRPML1 inh	TRPV1 PAM	gsp antagonist	Menin MLL FP FL	Sfp inh
COc1ccc(C)cc1S(=O)(=O)N(CC(=O)Nc1cccc([N+](=O)[O-])c1)c1ccc(C)cc1	13%[15.4 µM]	-0.4%	13	5	-34%	8.5	19%
Cc1c(Cl)c(C(F)(F)F)nn1CC(=O)N1CCSCC1	-9%	-2.0%	-3	-1	11%	0.0	9%
CN(C(=O)COC(=O)c1ccc(Br)c([N+](=O)[O-])c1)c1c(N)n(Cc2ccccc2)c(=O)[nH]c1=O	-6%	1.9%	-7	8	-16%	.	.
OCCN(CCCn1c(-c2ccncc2)nc2ccccc21)c1nc(CN2CCCCC2)cs1	.	-13%	15	15	3%	-1.9	12%
COc1ccc(NC(=O)CSc2nnnn2C2CCCCC2)c(OC)c1	-55%[inhibitor]	.	-16	8	-2%	.	10%
O=C(Cn1cc(C(=O)C(F)(F)F)c2ccccc21)NCc1ccco1	6%[15.4 µM]	.	1	-20	1%	3.2	6%
CC(NC(=O)Nc1ccc(Br)cc1)C(C)(C)C (stereo not drawn)	0%	0.6%	8	1	2%	-6.9	14%
NS(=O)(=O)c1ccc(N/N=C/c2ccc[nH]2)c([N+](=O)[O-])c1	-1%	-4.3%	-1	10	-11%	-1.4	-7%
CCc1cccc(OCC(=O)Nc2cc(Cl)ccc2-n2cncn2)c1	-110%[inhibitor]	-1.3%	-4	1	-7%	.	.
Cc1cc(NC(=O)CCC(=O)N(CC(=O)NC2CCCC2)c2cccc(C)c2C)no1	-28%	0.1%	-2	.	-5%	.	.
Cc1cccc(C)c1NC(=O)c1nc(S(=O)(=O)Cc2ccccc2)ncc1Cl	-18%[15.4 µM]	.	-5	-6	2%	.	?
NNC(=O)C1SCCN1S(=O)(=O)c1ccc(Cl)cc1 (stereo not drawn)	27%	1.5%	31	.	-6%	.	.
Cc1cc(F)ccc1NC(=O)Nc1ccc2c(c1)OCO2	?	3.3%	-17	-8	15%	.	-9%
O=C(Nc1ccc(F)cc1)c1cccc2c1C(=O)N(Cc1ccccn1)C2	-6%	-3.5%	4	-3	-13%	0.8	7%
COc1ccc(C(=O)/C=C/Nc2ccc(S(=O)(=O)Nc3nc(C)cc(C)n3)cc2)cc1OC	20%[15.4 µM]	-8.3%	-8	21	-7%	7.9	-1%
